# Ba CapD inh = Bacillus anthracis CapD inhibitors, primary screen, biochemical, fluorescence intensity; 140,000 compounds, 0.23% hits; purified CapD enzyme, fluorescence intensity read-out; active compounds read low; some hits fall short of the stated cut; z-score (test concentration not listed); CapD gamma-glutamyltranspeptidase (Bacillus anthracis Ames Ancestor);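 active = z-score under -4 in either of two replicates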;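 note: stock transfer was 100 nL into about 40 µL; score is relative to mean and spread of the plate; one replicate is shown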
# AID504770 = growth inhibition of E. coli YBA685, primary screen, V. cholerae RctB inhibitors; AID 504770, 2011; z-score (no concentration beside the values); 130,000 compounds, 0.27% hits; E. coli YBA685 rctB-dependent plasmid, OD600 growth, 3 h; active compounds read low;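 active = z-score under -2 on both plates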;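 note: wells of about 30 µL received 100 nL stock; score is relative to mean and SD of the test wells; the first replicate is given; strong numbers were not always called active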
# Numbers without * were called inactive; x = not tested or not shown.
SMILES,Ba CapD inh,AID504770
CCCCOc1nnc(-c2ccc(C)cc2)c2ccccc12,0,x
CCC(=O)Nc1ccccc1C(=O)OCC(=O)Nc1ccc(S(N)(=O)=O)cc1,-0.95,-0.55
O=[N+]([O-])c1ccc(-c2nn[nH]n2)cc1,-0.83,x
CCN(CC)S(=O)(=O)c1cccc(S(=O)(=O)c2ccc(C)c(S(=O)(=O)N(CC)CC)c2)c1,0.49,0.65
CSc1ncc(CO)n1Cc1ccccc1,-0.45,-0.15
Cc1ccccc1NC(=O)Cn1cc2c(n1)CCCCC2,-0.31,0.5
COc1ccc(Cl)cc1N(C)C(=O)Cn1nc(Cc2ccncc2)c2ccccc2c1=O,0.28,0.85
COc1ccc2c(c1)CCN(Cc1cc3sccc3n1CC1CCCCC1)C2,x,-1.4
Cc1ccc(CNC(=O)c2ccc3c(=O)n4c(nc3c2)CCCCC4)cc1,1.2,0.6
O=C(CCN1C(=O)/C(=C/c2ccc3c(c2)OCO3)SC1=S)Nc1ccc([N+](=O)[O-])cc1O,-0.14,x
CCN(CC)S(=O)(=O)c1ccc(N=Nc2c(C)nn(-c3ccccc3)c2N)cc1,x,0.3
CCc1cccc(NC(=O)C(Cc2ccccc2)NS(=O)(=O)c2ccc3c(c2)CCC(=O)N3)c1 (configuration not stated),-1.8,1.4
Cc1cc(-c2nnnn2-c2ccc(C(F)(F)F)cc2)no1,0.065,-0.35
O=C(N/C=N/O)c1ccccc1-n1ccnc1,-0.32,1.9
CC1=CCC2C(=O)N(c3cccc(C(=O)OCC(=O)c4ccc(Br)cc4)c3)C(=O)C2C1 (configuration not stated),-0.06,x
CC1(C)CC(=O)C=C(NCc2ccc(C(=O)O)cc2)C1,0.2,-0.65
Cc1nc2c(C(=O)NCC3CCCO3)cnn2c(C)c1Cc1ccccc1Cl (configuration not stated),-0.96,-0.45
CS(=O)(=O)c1ccc(C(=O)O)c(O)c1C(=O)O,53,-0.9
O=C(c1c[nH]c2ccccc12)C1CCCCC1,0.26,-0.2
CCOC(=O)C1CCN(C(=O)CCS(=O)(=O)c2ccc3c(c2)CC(C)N3C(=O)CC)CC1 (configuration not stated),0.2,-0.8
Cc1nc2ccccc2n1S(=O)(=O)N(C)C,0.27,0.35
CCc1ccccc1NC(=O)c1cc2c(=O)n3ccccc3nc2n1C,-0.085,-0.1
CCOC(=O)C(=O)N1c2ccc(C)cc2C(C)(c2ccccc2)CC1(C)C (configuration not stated),0.05,x
CC(C)N1C(=O)C2ON(c3ccccc3)C(c3cccs3)C2C1=O (configuration not stated),0.22,0.9
CC1CC(C)CN(Cc2csc3c2CCCC3)C1 (configuration not stated),0.66,0
Cc1[nH]c2ccccc2c1Cc1nc2ccccc2[nH]1,0.77,1.4
CCCNc1ncnc2onc(-c3ccc(F)cc3)c12,0.03,-0.75
Cc1cc(-c2ccc(Cl)cc2)nc2c1c(C)nn2CCO,x,0.6
CCc1ccc(OCC(=O)N(CC)CC)cc1,-0.11,-0.3
COC(=O)C1=C(C(=O)OC)SC2(S1)C(C(=O)OC)=C(C(=O)OC)SC1=C2c2ccc(C)cc2N(C(=O)Cc2ccccc2)C1(C)C,-1.1,x
Cc1ccc2occ(CN3CCSCC3)c(=O)c2c1,0.27,-0.8
O=C1c2ccccc2C(=O)C1(Nc1ccccc1)c1ccccc1,0.18,0.55
NCCC(O)C(=O)N[C@@H]1C[C@H](N)[C@@H](O[C@H]2O[C@H](CN)[C@@H](O)[C@H](O)[C@H]2N)[C@H](OC2O[C@H](CO)[C@H](O)[C@H]2O)[C@H]1O (some centres not stated),6.3,x
O=C(O)c1csc(C2COc3ccccc3O2)n1 (configuration not stated),0.23,0.5
CCC(C)(C)NC(=O)C1CCC(CNS(=O)(=O)c2cccc3nsnc23)CC1 (configuration not stated),-1.1,-0.4
CCOc1ccc(C(=O)CSc2nnc3c(n2)CCCC3)cc1NC(=O)CC,x,-0.65
O=C(COC(=O)c1cccc(C(F)(F)F)c1)NC1CCS(=O)(=O)C1 (configuration not stated),x,0.35
Cc1c(C(=O)NC2CCCCC2)sc2ncnc(N3CCCCC3)c12,0.9,x
NNC(=O)c1nn(-c2ccc(Cl)cc2)cc1O,x,-0.8
COc1cc(C(=O)Nc2ccc3c(c2)ncn3C(C)(C)C)cc(OC)c1OC,-0.09,-0.95
O=C(c1cc2ccccc2nc1-c1ccco1)C(F)(F)F,71,-0.4
COC(=O)C1=C(C)NC(=O)/C1=C\c1ccc(Cl)cc1,-1.3,0.85
COc1ccc(NC(=O)CSc2nc(O)cc(=O)[nH]2)cc1,-0.45,-0.1
Nc1ccc2c(c1)CN(Cc1ccccc1)C2,x,-0.25
CCOc1ccc2nc(NC(=O)CCc3ccccc3)sc2c1,0.32,-0.55
CCOc1nc(N)c(C#N)c(-c2ccccc2)c1C#N,2.2,-1.3
CN(Cc1ccccc1)S(=O)(=O)c1ccccc1,0.38,0.25
COc1ccc2c(c1)C=CC1(O2)N(C)c2ccccc2C1(C)C (configuration not stated),-0.42,x
CCOC(=O)c1c(C)nc2c(c1-c1ccc(OC)c(OC)c1)C(=O)c1ccccc1-2,-1,-0.6
O=C1CCCC2=C1C(c1cccs1)CC(=O)N2c1ccccc1 (configuration not stated),-1.5,1.7
O=C(c1ccc2c(Cl)c3c(nc2c1)CCC3)N1CCN(C(=O)c2ccco2)CC1,-0.92,-0.05
CN(C)c1nc2nonc2nc1N,-3.5,x
CCCS(=O)(=O)N1CCN(S(=O)(=O)c2ccccc2)CC1,x,-0.95
Cc1ccc2nc(NC(=O)C(F)(F)F)sc2c1,-1.4,-0.85
Cc1cc2c(cc1C)N(C(=O)CSc1ncn[nH]1)C(C)(C)c1ssc(=S)c1-2,-1.1,x
O=C(Nc1ccc(S(=O)(=O)N(C2CC2)C2CCN(Cc3ccccc3)CC2)cc1)Nc1ccc(F)cc1F,-0.65,x
O=C(c1ccc2c(=O)[nH][nH]c(=O)c2c1)N1CCN(c2cccc(C(F)(F)F)c2)CC1,x,-0.9
CCc1nnc(SCC(=O)Nc2cccc(C)c2)nc1CC,1,-0.45
CN(C)C(CNS(=O)(=O)c1ccc(Cl)cc1)c1ccccc1 (configuration not stated),-0.055,0
CCC1C(=O)C(C)(C)C(=O)OC1c1cccc(Br)c1 (configuration not stated),0.42,-0.25

# Compound profiles, as listed above. Order of screens: Ba CapD inh | AID504770
# Shown for O=C(c1ccc2c(=O)[nH][nH]c(=O)c2c1)N1CCN(c2cccc(C(F)(F)F)c2)CC1 → x | -0.9
# Shown for CN(C)C(CNS(=O)(=O)c1ccc(Cl)cc1)c1ccccc1 (configuration not stated) → -0.055 | 0
# Shown for CCC1C(=O)C(C)(C)C(=O)OC1c1cccc(Br)c1 (configuration not stated) → 0.42 | -0.25
# Shown for CCc1nnc(SCC(=O)Nc2cccc(C)c2)nc1CC → 1 | -0.45

# Continued:
SMILES,Ba CapD inh,AID504770
Cc1[nH]cnc1C(=O)N/N=C/c1ccncc1,-0.62,-0.65
COc1ccc(S(=O)(=O)N2Cc3ccccc3CC2C(=O)NC(C)(C)C)cc1OC (configuration not stated),-0.5,-0.25
CC(NC(=O)CN1C2CCC1CC(=O)NC2)c1ccccc1 (configuration not stated),x,1.6
Cc1cccc(NC(=O)CSc2nc3c(oc4ccccc43)c(=O)n2C2CCCC2)c1C,x,1.8
CC(CC(=O)NCC(c1ccc(F)cc1)N1CCOCC1)n1ccnc1 (configuration not stated),x,-0.75
Nc1ccc(C2(c3ccc(N)cc3)CCCCC2)cc1,0.05,-0.45
CNc1ccc(Cl)cc1C(=O)NCc1ccco1,84,x
CCOC(=O)CSc1nnc(-c2c[nH]c3ccccc23)n1-c1ccc(F)cc1,0.86,-1.2
COC(=O)c1oc2ccccc2c1N,41,x
O=C(Nc1ccc(-c2nc3cc(Cl)cc(Cl)c3o2)cc1)c1ccc2c(c1)OCCO2,26,-0.15
CC1Cc2ccccc2N1C(=O)CSc1nc(-c2ccco2)cc(C(F)(F)F)n1 (configuration not stated),-0.47,1.8
N/C(=N\O)c1snnc1-c1ccccc1,-0.75,-0.4
O=C(CSc1ccccn1)c1ccc(OCc2ccc(F)cc2)cc1,0.34,-0.2
Cc1nc(Oc2ccc(NC(=O)c3ccccc3)cc2)c2c3c(sc2n1)CCC3,-0.2,0
CCn1c(SCC(N)=O)nnc1C(C)Oc1ccc(F)cc1 (configuration not stated),0.07,-0.8
CCCOc1ccc2c(-c3ccccc3)cc(=O)oc2c1,2.1,-0.4
CCN(CC)CCCNC(=O)c1sc2ncnc(N3CCN(c4ccccc4OC)CC3)c2c1C,-0.06,x
COc1ccccc1Nc1nc(N)nc(CN2CCc3ccccc3C2)n1,-0.26,-0.1
Cc1ccccc1Nc1nc(N)nc(COc2ccc3c(C)cc(=O)oc3c2)n1,x,0.5
N#Cc1ccc(COC(=O)Cc2ccccc2)cc1,-0.1,-1.2
O=C(c1ccc(F)cc1)N1CCCCC(Sc2nnc(-c3ccc4c(c3)OCO4)o2)C1=O (configuration not stated),x,0.35
COc1ccc(C2C(C(=O)Nc3ccc(C)cc3)=C(C)Nc3nnnn32)cc1 (configuration not stated),1.8,x
O=C(COc1cc(Cl)ccc1Cl)NCc1ccccc1,1.1,0.45
Cc1oc2c(c1C(=O)Nc1ccc(C(=O)O)cc1)CCCC2,x,-1.2
CCN(CC)S(=O)(=O)c1ccc2nc(SC)sc2c1,-0.14,0.95
O=C1CCC(=O)N1c1ccc(Cl)cc1,0.57,-0.4
COc1cc(OC)nc(CSCCNC(=O)Nc2ccc(F)cc2F)n1,-0.59,x
O=C(Cn1cnc2c(nnn2-c2ccccc2)c1=O)NC1CCCC1,x,-0.65
CN(Cn1[nH]c(-c2cccs2)nc1=S)C1CCCCC1,x,0.05
Cc1nnc(-c2ccccc2)c(=O)n1/N=C/c1cccs1,-2.5,1.5
Oc1c(Br)cc(Br)cc1C=Nc1ccccc1Cl,-2.3,x
Cc1ccc(F)cc1S(=O)(=O)NCCc1ccc(F)cc1,-0.75,x
Cc1ccnc2c1ccc1ccccc12,4.1,0.05
Oc1ccc2ccccc2c1CN1CCN(Cc2cccs2)CC1,x,-1
CN1CCN(c2nc(-c3ccc([N+](=O)[O-])cc3)nc3ccccc23)CC1,-0.12,x
CCOC(=O)c1cc(Br)ccc1OCc1ccccc1Cl,0.38,-0.1
CC1(C)C2C3CCC(CO)(CC3)C21 (configuration not stated),0.11,x
O=C(N/N=C/c1ccc(Oc2ccccc2)cc1)c1ccncc1,-0.98,x
NNC(=O)C1CCCCC1,x,-0.2
Cc1cc(C)nc(OC(Cc2cnccn2)c2ccc(C(F)(F)F)cc2)n1 (configuration not stated),-0.43,x
N#CCCn1cc(/C=C/C(=O)O)c2ccccc21,x,-1.5
Cc1cc(C)n(C(C)CC(=O)NCc2cccs2)n1 (configuration not stated),0.93,-0.1
CC1(C)CC(=O)C2=C(C1)Nc1[nH]c(=O)[nH]c(=O)c1C2c1ccccc1 (configuration not stated),14,x
CC(=O)N1c2ccccc2NC2=C(C(=O)CC(c3cccc([N+](=O)[O-])c3)C2)C1c1ccc(C)cc1 (configuration not stated),0.13,x
Cc1nn(C(C)C(=O)NCCc2ccccc2)c2ccccc12 (configuration not stated),-0.58,-0.45
Cc1ccc(-c2cc(NC(=O)CN(C)CC3COc4ccccc4O3)on2)cc1 (configuration not stated),x,-0.45
CC(=O)Nc1c(F)cc(F)cc1C#N,0.62,x
Fc1cccc2ncnc(OCc3ccccc3)c12,0.54,-0.6
Cc1cc(C)nc(-n2c(Nc3ccccc3)cc(=O)c3c(C)n(-c4ccccc4)c(=O)nc32)n1,0.2,x
CC1CCCC(C)N1NC(=O)CCN1C(=O)S/C(=C\c2cccs2)C1=O (configuration not stated),x,-0.15
Cc1cccc(N2C(=NC(=O)c3ccc(Br)cc3)SC3CS(=O)(=O)CC32)c1 (configuration not stated),0.58,0.95
C=CCn1ncc(Cc2cnn(CC=C)c2C)c1C,-1.1,0.25
O=C1CCCCC1Sc1nnc(-c2ccco2)n1Cc1ccccc1 (configuration not stated),x,-0.45
COC(=O)c1ccc(S(=O)(=O)NC2Cc3ccccc3C2)n1C,0.6,-0.3
NN=C(c1ccccc1)c1ccccc1,0.005,-0.75
CCOc1ccc(S(=O)(=O)NCC(=O)OCN2C(=O)c3ccccc3C2=O)cc1,x,0.2
CC(C)n1cc(-c2ccccc2NC(=O)c2c(F)cccc2F)cn1,-0.25,x
O=C(CN1CCCc2ccccc21)NCc1ccccc1Cl,x,-1.5
Cc1nn(-c2ccc(Cl)cc2)c2sc(C(=O)ONC3=NCCCCC3)cc12,x,-0.4
COc1ccc(-c2[nH]nc3c2C(c2ccc(N(C)C)cc2)C2=C(CC(C)(C)CC2=O)N3)cc1 (configuration not stated),-0.14,-0.75

# Grouped by structure: the compounds so far containing a thiophene ring, fused or not
SMILES,Ba CapD inh,AID504770
COc1ccc2c(c1)CCN(Cc1cc3sccc3n1CC1CCCCC1)C2,x,-1.4
CC(C)N1C(=O)C2ON(c3ccccc3)C(c3cccs3)C2C1=O (configuration not stated),0.22,0.9
CC1CC(C)CN(Cc2csc3c2CCCC3)C1 (configuration not stated),0.66,0
Cc1c(C(=O)NC2CCCCC2)sc2ncnc(N3CCCCC3)c12,0.9,x
O=C1CCCC2=C1C(c1cccs1)CC(=O)N2c1ccccc1 (configuration not stated),-1.5,1.7
Cc1nc(Oc2ccc(NC(=O)c3ccccc3)cc2)c2c3c(sc2n1)CCC3,-0.2,0
CCN(CC)CCCNC(=O)c1sc2ncnc(N3CCN(c4ccccc4OC)CC3)c2c1C,-0.06,x
CN(Cn1[nH]c(-c2cccs2)nc1=S)C1CCCCC1,x,0.05
Cc1nnc(-c2ccccc2)c(=O)n1/N=C/c1cccs1,-2.5,1.5
Oc1ccc2ccccc2c1CN1CCN(Cc2cccs2)CC1,x,-1
Cc1cc(C)n(C(C)CC(=O)NCc2cccs2)n1 (configuration not stated),0.93,-0.1
CC1CCCC(C)N1NC(=O)CCN1C(=O)S/C(=C\c2cccs2)C1=O (configuration not stated),x,-0.15
Cc1nn(-c2ccc(Cl)cc2)c2sc(C(=O)ONC3=NCCCCC3)cc12,x,-0.4
